Source: PubChem BioAssay
GIV Gai3 FP: inhibitors of GIV GBA-motif binding to rat Galpha-i3; AID 1224905; hit rate 0.42% among 210,000; percent of control (FP), % (no concentration beside the values); P08753; Galpha-i3/FITC-GIV peptide fluorescence polarization, 90 min; hits give low values; scaled: aluminum fluoride 0%, vehicle 100%;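 active = replicate mean at 85% of control or lower, very high polarization wells dropped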;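 also: wells of about 15 µL received 100 nL stock; the first replicate is given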
Target sequence (P08753 whole entry, looked up): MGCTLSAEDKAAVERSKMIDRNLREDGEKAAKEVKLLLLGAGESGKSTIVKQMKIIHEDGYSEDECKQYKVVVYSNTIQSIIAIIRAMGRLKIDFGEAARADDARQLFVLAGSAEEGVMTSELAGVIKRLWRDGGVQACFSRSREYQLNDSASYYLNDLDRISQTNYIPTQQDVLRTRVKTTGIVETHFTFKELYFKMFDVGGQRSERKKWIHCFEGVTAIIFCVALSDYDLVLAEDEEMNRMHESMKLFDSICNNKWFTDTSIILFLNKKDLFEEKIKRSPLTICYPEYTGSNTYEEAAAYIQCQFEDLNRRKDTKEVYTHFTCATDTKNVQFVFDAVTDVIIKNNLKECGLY
Numbers without * were called inactive. Some of the compounds tested. The share of hits here may be higher or lower than overall.

A first look:
SMILES	GIV Gai3 FP
CCSc1nnc(NC(=O)CSc2nnc3c4cc(Br)ccc4n(C)c3n2)s1	108
Cc1ccc(C2CC(O)C(C)C(c3ccc(C)cc3)N2)cc1 (stereo not drawn)	115

This part in full (from the top)
SMILES	GIV Gai3 FP
CCSc1nnc(NC(=O)CSc2nnc3c4cc(Br)ccc4n(C)c3n2)s1	108
Cc1ccc(C2CC(O)C(C)C(c3ccc(C)cc3)N2)cc1 (stereo not drawn)	115
CCOc1ccc(S(=O)(=O)N2CCCC2c2nc(-c3ccc(Cl)cc3)no2)cc1 (stereo not drawn)	100
COc1ccc(N2CC(O)(c3ccc(Cl)cc3)[N+]3=C2CCCC3)cc1 (stereo not drawn)	116
CCc1cc(C2CCCN2C(=O)C(C)(C)C)on1 (stereo not drawn)	102
CC(=O)Nc1ccc(-n2c(/C=C\c3cccc(C(F)(F)F)c3)nc3ccccc3c2=O)cc1	104
COc1ccc(OC)c(S(=O)(=O)N2CCC3(C2)C(=O)N(C)c2ccccc23)c1 (stereo not drawn)	106
COc1cccc(C(=O)N2CCC(NS(=O)(=O)c3ccc(C)cc3)CC2)c1	102
CCCCOc1ccc(S(=O)(=O)NCCOc2ccc(-c3ccccc3)nn2)cc1	100
Cc1ccc(COCc2nn(C)c3c2CN(C(=O)c2ccc4c(c2)OCO4)CC3)cc1	100
COc1ccc(N2CCN(S(=O)(=O)c3cc(C(=O)Nc4ccccc4Cl)ccc3F)CC2)cc1	110
COc1ccc(C2=NN(C(=O)CSc3nnc(CNC(=O)c4cccs4)n3C)C(c3ccc(F)cc3)C2)cc1 (stereo not drawn)	111
CC(C)(NCCNC(C)(C)P(=O)(O)O)P(=O)(O)O	106
COc1ccc(CCNC(=O)c2c[nH]c3ccc(S(=O)(=O)N(C)Cc4ccccc4)cc3c2=O)cc1OC	104
COc1ccc2c(c1)c(=O)c1ccccc1n2CC(=O)Nc1ccc(OC)c(OC)c1	121

Reformatted field by field: 2 of the compounds above
COc1ccc(N2CC(O)(c3ccc(Cl)cc3)[N+]3=C2CCCC3)cc1 (stereo not drawn)
  GIV Gai3 FP: 116
CCc1cc(C2CCCN2C(=O)C(C)(C)C)on1 (stereo not drawn)
  GIV Gai3 FP: 102

Next records:
SMILES	GIV Gai3 FP
CCOC(=O)c1c(NC(=O)c2cc([N+](=O)[O-])cc([N+](=O)[O-])c2)sc2c1CCN(C(=O)OCC)C2	118
COC(OC)C12c3ccccc3C(c3ccccc31)C1C(=O)N(CCO)C(=O)C12 (stereo not drawn)	107
Cc1ccc(C)c(C2=C/C(=C3/c4ccccc4-c4ncccc43)C(=O)O2)c1	110
Cc1ccccc1C(=O)Nc1ccc(C2(C(=O)NCC3CCCO3)CC2)cc1 (stereo not drawn)	102
S=c1n(CN2CCCCC2)nc(-c2cccc(Br)c2)n1-c1ccccc1	108
COc1cc(NC(=O)c2sc3nc(C)nc(N4CCOCC4)c3c2C)cc(OC)c1OC	101
COc1ccc(OC)c(C2C(N3C(=O)c4c(Cl)c(Cl)c(Cl)c(Cl)c4C3=O)C(=O)N2c2ccc(C)c(F)c2)c1 (stereo not drawn)	107
COc1ccc(CN2CCCC2c2cc(C)on2)cc1OC (stereo not drawn)	110
O=C(CSc1nc2c(sc(=S)n2Cc2ccco2)c(=O)n1-c1ccc(F)cc1)N1CCCC1	114
COc1ccc(C2CC(c3cccs3)=NN2C(=O)CSc2nnc(CNC(=O)c3ccco3)n2C)cc1 (stereo not drawn)	98
CCOC(=O)C1=C(C(=O)OCC)SC2(S1)C(C(=O)OCC)=C(C(=O)OCC)SC1=C2c2ccccc2N(C(=O)C(C)C)C1(C)C	107
CCC(=O)Nc1ncnc2oc(-c3ccccc3)c(-c3ccccc3)c12	109
CCOc1ccc(N/C(SCc2ccccc2C)=C(/C#N)C(N)=O)cc1	105
CCSCCOC(=O)C1=C(C)NC2=C(C(=O)CC(C)(C)C2)C1c1cc(Br)ccc1OC (stereo not drawn)	106
O=C(Nc1c2c(nn1-c1ccc([N+](=O)[O-])cc1)CS(=O)(=O)C2)c1cc(Br)ccc1Cl	99

The results go on.
SMILES	GIV Gai3 FP
O=C(CN1CCN(CCO)CC1)N1c2ccccc2Sc2ccc(Cl)cc21	106
O=C(Nc1cc(-c2ccsc2)no1)c1ccc(Br)o1	103
Cc1cccc(NC(=O)Nc2ccc(OCc3cc(=O)n4ccccc4n3)cc2)c1C	104
O=C(CC1CSc2ccccc2NC1=O)NC1CCCCC1 (stereo not drawn)	100
COc1ccc(NC(=O)C(Cc2c[nH]c3ccccc23)NC(=O)c2ccccc2)cc1 (stereo not drawn)	105
Cc1ccc(NC(=O)c2nnc(CNC(=O)c3cccnc3)s2)cc1	108
COc1ccc(CNC(=O)C2(C)Cc3ccccc3C(=O)N2Cc2cc(OC)cc(OC)c2)cc1 (stereo not drawn)	105
CCOCCCNC(=O)c1cc2cc(S(=O)(=O)N(C)C)ccc2n1Cc1ccncc1	99
CC(=O)OC1CCC2(C)C3CCC4(C)C(CC5OC6(CCC(C)CO6)C(C)C54)C3CC(=O)C2(O)C1 (stereo not drawn)	110
Cc1sc(C)c(S(=O)(=O)NC2CC2)c1-c1cc(C(F)(F)F)on1	104
COCc1cnc2c(c1SCC(=O)N1CCC(C)CC1)c(=O)n(C)c(=O)n2C	103
O=c1cc(CSc2nc3ccccc3c3nc4ccccc4n23)nc2ccc(Cl)cn12	112
COc1cccc(NC(=O)CSc2nc(NC3CCCCC3)c3ccccc3n2)c1	114
O=C1/C(=C/c2ccc(Cl)cc2)C=C(c2ccccc2)N1c1ccc(F)cc1	106
CC(=O)Oc1ccc(C2Nc3ccc(C)cc3C3C=CCC32)c(OC(C)=O)c1 (stereo not drawn)	126

Part of the list above, with each value named.
CCOCCCNC(=O)c1cc2cc(S(=O)(=O)N(C)C)ccc2n1Cc1ccncc1
  GIV Gai3 FP: 99

O=c1cc(CSc2nc3ccccc3c3nc4ccccc4n23)nc2ccc(Cl)cn12
  GIV Gai3 FP: 112

COCc1cnc2c(c1SCC(=O)N1CCC(C)CC1)c(=O)n(C)c(=O)n2C
  GIV Gai3 FP: 103

COc1ccc(NC(=O)C(Cc2c[nH]c3ccccc23)NC(=O)c2ccccc2)cc1 (stereo not drawn)
  GIV Gai3 FP: 105

Further structures.
SMILES	GIV Gai3 FP
COc1ccc(C2C(C#N)=C(N)OC3=C2C(=O)CC(C)(C)C3)c(CN2CCCc3ccccc32)c1 (stereo not drawn)	113
Cc1ccc(-c2cncc(C(=O)NCc3ccc(C(C)C)cc3)c2)cc1	103
CCCc1[nH]n(-c2ccc(F)cc2)c(=O)c1C=NCC(O)c1ccccc1 (stereo not drawn)	105
O=C(Nc1c2c(nn1-c1ccc(Cl)cc1)CS(=O)(=O)C2)c1ccc(S(=O)(=O)N2CCCCC2)cc1	102
COC(=O)C1=CN(c2ccc3c(c2)OCO3)c2cc(F)ccc2S1(=O)=O	107
O=C(COc1ccc(F)cc1)Nc1cccc(OCc2cc(=O)n3cc(Cl)ccc3n2)c1	114
CC1(C)CC(=O)C2=C(C1)Nc1ccccc1N(C(=O)Nc1ccc(F)cc1)C2c1ccccc1 (stereo not drawn)	101
COc1cccc(NS(=O)(=O)c2cc(C(=O)N3CCN(C)CC3)ccc2NCc2ccccc2OC)c1	107
CCc1onc(C)c1C1CCCN1C(=O)c1c(Cl)cnn1C (stereo not drawn)	92
CC1CCN(C(=O)CSc2nc(NCc3ccc4c(c3)OCO4)c3ccccc3n2)CC1	106
Cc1ccc(-n2nc3c(c2NC(=O)c2ccc(S(=O)(=O)N4CCCCC4)cc2)CS(=O)(=O)C3)cc1	111
Cc1ccc(S(=O)(=O)N(Cc2ccco2)CC2CCCO2)cc1[N+](=O)[O-] (stereo not drawn)	118
COC(=O)C1=C(C(=O)OC)SC2(S1)C(C(=O)OC)=C(C(=O)OC)SC1=C2c2ccccc2NC1(C)C	100
CCOC(=O)C1=C(C)NC(C)=C(C(=O)OCC)C1c1ccc(OC(=O)c2ccc(C)cc2)c(OC)c1	107
COc1cc(-c2c(C#N)c(N)n3c(nc4ccccc43)c2C#N)ccc1OCc1ccccc1	105

The listing continues:
SMILES	GIV Gai3 FP
Cc1cccc(C(O)(C(=O)NN(C(=O)c2ccccc2C(=O)Oc2ccccc2)c2ccccc2)c2cccc(C)c2)c1	110
O=C(CSc1nnc2c3sc(N4CCCC4)nc3ncn12)Nc1ccc(F)c(Cl)c1	95
c1ccc(N2CCN(c3nc(Nc4ccc5c(c4)OCO5)c4cnn(-c5ccccc5)c4n3)CC2)cc1	99
Cc1ccc2nc3c(N)c(Cl)cc4c3c(c2c1)-c1ccccc1C4=O	108
Cc1nn(-c2nc3ccc(Br)cc3s2)c2c1C(c1ccccc1F)CC(=O)N2 (stereo not drawn)	100
CC1(C)CC(=O)C2=C(C1)OC1=C(C(=O)CC(C)(C)C1)C2c1ccccc1C(=O)O	114
COc1cccc(N2CCN(C(=O)C(C)C3CCN(S(=O)(=O)c4c(C)noc4C)CC3)CC2)c1 (stereo not drawn)	108
CCNC(=O)c1cc2c(cc1C)OCCCO2	111
O=C(NCC1CC1)C1CCN(c2cnc(N3CCSCC3)nc2)CC1	101
O=C(Nc1cccnc1)C1CCN(S(=O)(=O)c2cccnc2)CC1	106
Cc1ccc(-n2nc(C)c3c(=O)n(CC(=O)NCCC4=CCCCC4)ccc32)cc1	104
CCCc1[nH]nc2c1C(c1ccc(OC(=O)N3CCOCC3)c(OCC)c1)C(C#N)=C(N)O2 (stereo not drawn)	99
CCOC(=O)C1=C(N)Oc2cc(O)ccc2C1c1ccccc1 (stereo not drawn)	104
Cc1cc(C)c(NS(=O)(=O)c2cc(-c3cc(C(F)(F)F)on3)sc2C)c(C)c1	100
Cc1ccc(NC(=O)CSc2nc3ccccc3nc2Cc2cccc([N+](=O)[O-])c2)cc1F	101

(more compounds)
SMILES	GIV Gai3 FP
CCOc1ccccc1C(=O)N1CCCC(C)(C(=O)NCc2cccc(OC)c2)C1 (stereo not drawn)	109
COc1ccc(-c2noc(-c3nn(-c4ccc(C)cc4)ccc3=O)n2)cc1OC	98
CN1CCN(CCCSc2nnc3c(n2)[nH]c2ccccc23)CC1	119
Cc1cccc(N2CCN(S(=O)(=O)c3cc(-c4cc(C)no4)cs3)CC2C)c1 (stereo not drawn)	100
COc1cccc(NC(=O)C2CCCN(S(=O)(=O)c3cc(-c4noc(C)n4)cs3)C2)c1 (stereo not drawn)	106
CCOC(=O)C1=C(O)/C(=C/c2ccccc2)SC1=Nc1cccc(Cl)c1	118
CCOc1ccc(C2OC3(C(=O)c4ccccc4C3=O)C3C(=O)N(c4ccc(C)cc4)C(=O)C23)cc1 (stereo not drawn)	100
Cn1c(Br)nc2c1c(=O)n(Cc1ccccc1Cl)c(=O)n2C	110
O=C(Cn1nc(C(=O)Nc2ccccc2)ccc1=O)Nc1ccc2c(c1)OCO2	102
O=C(Nc1nnc(SCc2nnc(-c3ccccc3)o2)s1)c1ccccc1F	104
CCC(=O)Nc1nnc(CCCn2c(-c3nonc3NC(=O)CC)nc3ccccc32)s1	108
CCOc1ccc2c(c1)C(=C1SC(C(=O)OC)=C(C(=O)OC)S1)C(=S)C(C)(C)N2C(=O)CC	110
CCOC(=O)c1[nH]c(C)c(CN(C(=O)C2CC2)C2CCCCC2)c1C	97
O=S(=O)(Nc1cc(-c2ccoc2)no1)c1ccc(F)cc1F	113
CC(C)CC(=O)Nc1ccc(S(=O)(=O)Nc2cccc(-c3ccc4ccccc4n3)c2)cc1	96

The list goes on.
SMILES	GIV Gai3 FP
CCCOc1ccc(C2C(C#N)=C(N)Oc3n[nH]c(-c4ccc5c(c4)OCO5)c32)cc1 (stereo not drawn)	100
Cc1nn2c3ccccc3n(CC(=O)c3ccccc3)c2nc1=O	121
O=C(c1ccccc1)N1CCc2cc(CNS(=O)(=O)c3ccccc3F)ccc21	105
Cc1cccc(Nc2ncnc3c2cnn3-c2cccc(C)c2)c1	111
COc1ccc(-n2c(-c3cccc(OC)c3)cn3c4c(=O)n(C)c(=O)n(C)c4nc23)cc1	104
COCCCNC(=O)C(C)C1CCN(S(=O)(=O)c2cccs2)CC1 (stereo not drawn)	104
Cc1ccc(CNC(=O)c2ccc(N3CC4CC(C3)c3cccc(=O)n3C4)c(NS(=O)(=O)c3ccc(F)c(C)c3)c2)cc1 (stereo not drawn)	111
Cn1cnc2cc(-c3noc(-c4ccc(F)cc4)n3)ccc21	99
O=S(=O)(Cc1ccccc1F)N1CCOc2ccc(COCc3ccc(F)cc3)cc2C1	107
O=C(NC1CCCC1)c1cccc(Oc2cc(-c3cccc(F)c3)ncn2)c1	105
Cc1ccc(-c2ccc(-n3nc(C)c(S(=O)(=O)NCC4CCCO4)c3C)nn2)cc1C (stereo not drawn)	104
COc1ccc(-c2cnn3c(C)cc(C)nc23)cc1S(=O)(=O)N1CCN(C2CCCCC2)CC1	94
CC1(C)CC(=O)C2=C(C1)OC1=C(C(=O)CC(C)(C)C1)C2c1ccc(-c2ccc(Cl)cc2)o1	110
CC1CCN(c2cc(-c3nc(-c4ccccc4)no3)c3ccccc3n2)CC1	112
N#Cc1c(N)nc2sc(C(=O)Nc3ccc(Br)cc3)c(N)c2c1-c1ccccc1	119

(cont.)
SMILES	GIV Gai3 FP
Clc1ccc(-n2ncc3c(NCc4cccc(Cl)c4)ncnc32)cc1	112
O=S1(=O)N=CN(c2ccc(F)c(F)c2)c2ncccc21	102
O=C1c2sc3nnc(-c4ccccc4)c(=O)n3c2C(=O)N1c1ccccc1	112
COCCOC(=O)C1=C(C)NC2=C(C(=O)CC(c3cccs3)C2)C1c1ccc(OC)c(OC)c1OC (stereo not drawn)	112
O=C1/C(=C/c2c(NCc3ccco3)nc3ccccn3c2=O)SC(=S)N1Cc1ccco1	161
COc1ccc([N+](=O)[O-])cc1C1N(c2ccccc2)CCN1c1ccccc1	110
